Source: PubChem BioAssay (National Center for Advancing Translational Sciences (NCATS))
Cruzain inh Det: qHTS Assay for Promiscuous and Specific Inhibitors of Cruzain (with detergent). Potency, µM, inactives show max response, negative = inhibition, usual class: inhibitors. Cruzipain (Trypanosoma cruzi), P25779. purified cruzain, Z-FR-AMC fluorescence, 0.01% Triton. 0.43% of 200,000 active. AID 1478, 2009; active = well fitted curve in the direction sought with a large enough effect; inconclusive = small, poorly fitted or top-dose-only effect, or another doubt; inactive = no such curve, though single readings can be large; an effect the other way counts as inactive or inconclusive;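 note: plate controls were neutral wells for no effect and buffer without enzyme for full effect; nearly all actives have a fitted effect of over 40% in size; top concentration of the series not given in the record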
Target sequence (P25779 123-467 limits assumed): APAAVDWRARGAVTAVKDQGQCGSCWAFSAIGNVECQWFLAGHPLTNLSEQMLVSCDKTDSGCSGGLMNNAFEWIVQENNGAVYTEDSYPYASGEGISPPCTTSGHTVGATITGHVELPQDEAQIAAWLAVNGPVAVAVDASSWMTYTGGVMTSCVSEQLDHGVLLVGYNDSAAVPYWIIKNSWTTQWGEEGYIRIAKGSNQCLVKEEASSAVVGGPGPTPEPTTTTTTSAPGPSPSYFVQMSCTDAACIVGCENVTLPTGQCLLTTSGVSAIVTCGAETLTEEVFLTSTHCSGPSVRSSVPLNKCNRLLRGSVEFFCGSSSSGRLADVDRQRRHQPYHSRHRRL
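Cysteine protease activity tested under reducing, mildly acidic conditions (100 mM sodium acetate pH 5.5, 5 mM DTT) plus 0.01% Triton X-100. Cruzain 1.5 nM; substrate Z-FR-AMC 2 uM; 15 min compound preincubation at room temperature.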
Cruzain noTriton: qHTS Assay for Promiscuous and Specific Inhibitors of Cruzain (without detergent). AID 1476, 2009. Potency, µM, for the others: max response, negative = inhibition, usual class: inhibitors. purified cruzain, Z-FR-AMC fluorescence, no detergent. 2.3% of 200,000 active; active = well fitted curve in the direction sought with a large enough effect; inconclusive = small, poorly fitted or top-dose-only effect, or another doubt; inactive = no such curve, though single readings can be large; an effect the other way counts as inactive or inconclusive;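 note: plate controls were enzyme without inhibitor for no effect and buffer without enzyme for full effect; nearly all actives have a fitted effect of over 40% in size; top concentration of the series not given in the record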
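Detergent-free condition (0.00005% Triton X-100) in acetate buffer pH 5.5 with DTT. 1.5 nM enzyme and compound were pre-mixed 15 min, then 2 uM Z-FR-AMC substrate added; reaction progress from fluorescence change between first and third reads (60 s).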
SARS PLP yeast: qHTS of Yeast-based Assay for SARS-CoV PLP; Potency, µM (series often up to 32.9 µM), without a hit: at the top dose activity, positive = growth rescue; 0.19% of 330,000 active; S. cerevisiae expressing SARS-CoV PLpro, growth rescue; control for the full effect not named in the record; note: 0% is about no effect; nearly all actives have a fitted effect of over 55% in size; growth read by luminescence after 48 h
Marburg entry inh: qHTS for inhibitors of binding or entry into cells for Marburg Virus. Marburg virus pseudotyped entry inhibition, cell reporter; control for the full effect not named in the record; about a third of the inactives were read at about 46 µM. Potency, µM (doses to about 37.8 µM), for inactives: at the highest dose activity change, negative = inhibition, hits mostly inhibitors. 1.8% of 300,000 active. AID 540276, 2011; active = well fitted inhibition curve with a large enough effect; inconclusive = small, poorly fitted or top-dose-only effect, or effect the other way; inactive = flat fitted curve, though single readings scatter; tested in HEK293 cells; about a fifth of its hits are not listed in these tables; note: % is set by controls: 0 for no effect and ±100 for the full control effect; luciferase read-out
RE007 growth inh: qHTS Assay for Inhibitors of the HIV-1 protein Vpr. S. pombe RE007 Vpr strain, BacTiter-Glo ATP luminescence, 24 h; control for the full effect not named in the record. Potency, µM (titrated, usually from 92.2 µM), for inactives: top-dose activity change, negative = less growth. 0.21% of 360,000 active; active = well fitted falling curve with a large enough effect; inconclusive = small, poorly fitted or top-dose-only effect; inactive = no such curve, though single readings can be large or run the other way;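 note: % is set by controls: 0 for no effect and ±100 for the full control effect; nearly all actives have a fitted effect of over 50% in size; the assay follows cell death caused by Vpr and the record does not say whether a fall means rescue or toxicity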
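Fission yeast strain RE007, carrying one chromosomally integrated HIV-1 vpr copy, was seeded at OD 0.01 in PMG+AL medium with 23 nL pinned compound. After 24 h at 30 °C and 99% humidity, viability was read by BacTiter-Glo luminescence.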
2A StopGo: High Throughput Screening for Foot and Mouth Disease Virus Antivirals | human cells with a luciferase reporter of 2A StopGo recoding; control for the full effect not named in the record | Potency, µM (titrated, usually from 57.9 µM), for the others: at the highest dose signal change, negative = less light | 1.2% of 410,000 active | AID 1159524, 2015; active = well fitted falling curve with a large enough effect; inconclusive = small, poorly fitted or top-dose-only effect; inactive = no such curve, though single readings can be large or run the other way; tested in HEK293T cells; note: % is set by controls: 0 for no effect and ±100 for the full control effect; nearly all actives have a fitted effect of over 45% in size; luciferase light after 4 h
NS1 inh: qHTS Assay for Inhibitors of Influenza NS1 Protein Function. S. cerevisiae slowed by influenza A NS1, growth recovery by OD600. Potency, µM (highest dose often 46.1 µM), without a hit: at the highest dose activity, positive = more growth. 0.4% of 270,000 active; note: actives are rising curves; nearly all actives have a fitted effect of over 50% in size
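OD600 was taken as the measure of yeast growth restored by compound in an NS1-expressing S. cerevisiae strain. Cells had been washed out of glucose medium and diluted 1:100 into galactose -URA medium, pH 6.0.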
LASV entry inh: qHTS for Inhibitors of binding or entry into cells for Lassa Virus; Lassa virus pseudotype entry inhibition, cell reporter; control for the full effect not named in the record; AID 540256, 2011; Potency, µM (highest dose often 37.9 µM), for inactives: top-dose activity change, negative = inhibition, hits mostly inhibitors; 1.2% of 300,000 active; active means well fitted inhibition curve with a large enough effect; inconclusive means small, poorly fitted or top-dose-only effect, or effect the other way; inactive means flat fitted curve, though single readings scatter; tested in HEK293 cells; note: % is set by controls: 0 for no effect and ±100 for the full control effect; nearly all actives have a fitted effect of over 50% in size; luciferase read-out
An asterisk follows results filed as active; ? = inconclusive; . = not tested or not shown; & = joins results of further samples; [ ] = dose if it differs, or a comment. Unless noted, calls come from the whole dose curve; as a rule, active means well fitted rising curve with a large enough effect; inconclusive means small, poorly fitted or top-dose-only effect; inactive means no such curve, though single readings can be large or run the other way. Potency is the fitted concentration of half-maximal effect.

SMILES | Cruzain inh Det | Cruzain noTriton | SARS PLP yeast | Marburg entry inh | RE007 growth inh | 2A StopGo | NS1 inh | LASV entry inh
COc1n[nH]c(C(=O)Nc2nc3ccccc3s2)c1[N+](=O)[O-] | . | . | -2% | ? | -15% | 64%[activator] | -51% | ?
Cc1ccc(/C=C/C(=O)OCn2nnc3ccccc3c2=O)o1 | . | . | 0% | 4%[46.1 µM] | 46% | -10% | -8% | 2%
CC(C)c1ccc(C2NC(=S)NC3=C2C(=O)CC(C)(C)C3)cc1 (centres undefined) | 1.4% | -7% | -27% | 19% | 7% | -29% | 7% | -1%
NS(=O)(=O)c1ccc(CNC(=O)/C=C/c2cccc([N+](=O)[O-])c2)cc1 | . | . | 1% | 4%[46.1 µM] | 1% | -8% | 1% | -11%
COc1ccccc1C(=O)NNC(=O)CN1C(=O)c2ccccc2C1=O | . | . | -3% | -3% | 2% | -12% | 3% | 10%
S=C(Nc1ccc(Br)cc1Cl)Nn1cnnc1 | . | . | -2% | 4%[46.1 µM] | -18% | 15% | -65% | 25%[46.1 µM]
COc1ccc(Cn2cnc([N+](=O)[O-])c2)cc1[N+](=O)[O-] | . | . | -2% | 9%[46.1 µM] | -4% | 5% | 0% | -4%
Cc1cc(C)n(-c2nc3ccccc3nc2N2CCN(S(=O)(=O)c3ccc4ccccc4c3)CC2)n1 | 2.1% | ? | -3% | ? | 3% | -13% | -1% | ?
CCOC(=O)CSc1cccc2cccnc12 | 5.1% | -3% | 9% | ? | ? | ? | -33% | 8%
Cc1ccc(-c2csc3ncnc(N4CCN(Cc5ccccc5)CC4)c23)cc1 | . | . | 4% | . | 11% | ? | 15% | .
CCc1ccc(NC(=O)CSc2nccn2-c2ccc(OC)cc2)cc1 | -5.4% | 0% | . | . | . | -24% | . | -26%[46.1 µM]
O=C(CCc1nc(-c2cccs2)no1)Nc1ccccc1[N+](=O)[O-] | -3.8% | -8% | . | ? | . | 12% | . | 6%[46.1 µM]
O=C1NCCC/C1=N/Nc1cc(F)ccc1F | . | . | -6% | . | ? | 52%[activator] | -73% | .
CS(=O)(=O)NN1C(=O)c2ccccc2NC1c1cccc(O)c1 (centres undefined) | . | . | -4% | 0%[46.1 µM] | 15% | 4% | . | 8%
CC1CN(C(=O)CCC(=O)NCc2ccc(F)cc2)c2cc(Cl)ccc2O1 (centres undefined) | -3.1% | 17% | . | -30%[46.1 µM] | . | ? | . | 0%[46.1 µM]
O=C1c2ccccc2S(=O)(=O)N1CC1CC(c2ccccc2Cl)=NO1 (centres undefined) | -4.8% | 6% | 20% | ? | ? | -24% | -13% | 8%
O=C1CC(c2ccsc2)c2ccc3ccccc3c2N1 (centres undefined) | . | . | -3% | -12%[46.1 µM] | 4% | 15% | -5% | -5%[46.1 µM]
Cc1cc(C)cc(C(=O)N2CCCCCC2)c1 | 2.6% | 1% | 17% | 2%&2% | 9% | 19% | -6% | 0%
Cc1cc(C)c(C=NNc2nc3c([nH]2)c(=O)n(C)c(=O)n3C)c(C)c1 | . | . | . | 0%[46.1 µM] | 13% | -11% | . | -3%[46.1 µM]
COc1ccc(NS(=O)(=O)c2cc(C(=O)O)ccc2C)cc1 | -1.5% | -13% | 0% | 8% | 11% | . | 4% | -11%
COc1ccc(C(=O)c2oc3ccccc3c2NC(C)=O)cc1 | -4.4% | -6% | -2% | ? | 4% | -23% | -55% | 26%
Cc1nnc(SCC(=O)c2c(N)n(Cc3ccccc3)c(=O)n(C)c2=O)n1C | . | . | -2% | 2%[46.1 µM] | 2% | -8% | . | -9%[46.1 µM]
CCN(CC)Cc1oc(-c2ccccc2)cc1C(=O)O | . | . | 1% | ? | 0% | -9% | -1% | 3%
COc1ccc(-n2c(=O)[nH]cc(C(=O)Nc3ccccc3)c2=O)cc1 | 4.4% | 7% | 6% | . | 4% | -7% | 10% | .
Cn1c2ccccc2c2nnc(SCC(N)=O)nc21 | . | . | -1% | . | -3% | -13% | 5% | .
The list goes on:
SMILES | Cruzain inh Det | Cruzain noTriton | SARS PLP yeast | Marburg entry inh | RE007 growth inh | 2A StopGo | NS1 inh | LASV entry inh
C[C@@H](NC(=O)[C@@H]1Cc2ccccc2CN1C(=O)OC(C)(C)C)C(=O)NC1CCCC1 | . | . | -13% | . | 6% | -2% | 5% | .
Cc1cc(=O)[nH]c(SC/C=C/c2ccccc2)n1 | -5.2% | 3% | -3% | -1% | 21% | 13% | -12% | ?
O=C(CNC(=O)c1ccc(Cl)cc1Cl)OCc1cn2cc(Br)ccc2n1 | . | . | 16% | 6%[46.1 µM] | -12% | 3% | . | 1%[46.1 µM]
CCc1ccc(C2C(C#N)=C(N)Oc3cc(N)ccc32)cc1 (centres undefined) | . | . | 3% | ? | 0% | -5% | 25% | -11%[46.1 µM]
CCOc1ccc(NC(=O)CSc2nc3c(c(=O)n2C)SC(C)C3)cc1 (centres undefined) | -3.7% | -9% | -12% | . | 7% | -27% | ? | .
COCCCNC(=O)c1c(N)n(-c2ccc(S(N)(=O)=O)cc2)c2nc3ccccc3nc12 | -0.9% | ? | -1% | 2% | -1% | -25% | 3% | -22%
Cc1cc(NC(=O)c2ccc(F)cc2)ccc1-c1cc2ccccc2oc1=O | -2.2% | 5% | . | . | . | -5% | . | -20%[46.1 µM]
Cc1ocnc1C(=O)Nc1ccc(Cl)cc1 | 2.0% | -3% | -3% | 3% | -29% | 57%[activator] | -16% | ?
CCOc1ccccc1NC(=O)/C(C#N)=C/c1c(C)nn(-c2ccccc2)c1Cl | -2.7% | 14% | 7% | 2% | -13% | -27% | 6% | ?
O=C(c1ccc(Cl)c(S(=O)(=O)NCc2ccco2)c1)N1CCN(c2ccc(F)cc2)CC1 | -5.3% | -8% | 9% | ? | 8% | -28% | 3% | -22%
N#Cc1c(/N=C/c2ccco2)sc2c1CCCCC2 | -10% | -7% | -5% | 12% | -1% | -29% | -43% | -9%
COc1ccc(-n2c(CN3CCOCC3)nc3ccccc3c2=O)c(OC)c1 | . | . | -2% | . | 4% | -18% | -10% | .
CCS(=O)(=O)c1ccc2c(c1)N(S(=O)(=O)c1ccc(OC)cc1)CC(C(=O)O)O2 (centres undefined) | 7.3% | -3% | 0% | 7% | 7% | -2% | 11% | 0%
COC(=O)Cn1c(=O)cnc2ccccc21 | -0.2% | -5% | 1% | -15% | 16% | 5% | 0% | -2%
COc1ccc(CNCCC(c2ccc3c(c2)OCO3)c2ccccc2OC)cc1 (centres undefined) | -2.3% | 12% | . | ? | . | -31% | . | ?
O=C(Cn1cnc(S(=O)(=O)N2CCCCC2)c1)Nc1ccc(OC(F)(F)F)cc1 | . | . | 1% | . | 8% | 3% | 0% | .
CCc1nn(C(C)C(=O)NCc2cccc(OC)c2)c(=O)c2cc3occc3n12 (centres undefined) | . | . | 0% | -24%[46.1 µM] | -21% | -4% | ? | -8%[46.1 µM]
Cc1nn(-c2ccc(N3CCOCC3)nn2)c(C)c1CCC(=O)Nc1ccc(F)cc1F | -1.4% | ? | . | . | . | -2% | . | 12%[46.1 µM]
COc1ccc(CCNC(=O)CSc2nc3ccccc3nc2Cc2ccc(Cl)cc2)cc1OC | -0.6% | ? | . | . | . | ? | . | 5%[46.1 µM]
Cc1nc2nc(SCC(=O)NCCCN3CCCC3)nn2c(C)c1Cc1ccccc1Cl | . | . | 0% | -19%[46.1 µM] | 17% | -16% | 13% | .
C/C(=N\Nc1nc(-c2cc(C)ccc2C)cs1)c1cc2ccccc2oc1=O | ? | 25µM* | 4% | ? | -1% | -13% | 27% | 2%
Cc1ccc(S(=O)(=O)n2nc(-n3c(C)ccc3C)c3c(F)cccc32)c2ccccc12 | . | . | 2% | 11µM* | 1% | -13% | -3% | -20%[46.1 µM]
CC(C)CCOP(N)(=O)Oc1ccccc1 (centres undefined) | . | . | 10% | . | 3% | 45%[activator] | -5% | .
O=C(CSc1nnnn1-c1cccnc1)Nc1ccc(F)cc1F | . | . | -4% | 5% | 10% | -7% | -4% | -27%
COc1cc(NC(=O)CSc2nc(C)c(C(=O)Nc3ccccc3)c(-c3ccc(OC)c(OC)c3)c2C#N)c(OC)cc1Cl | 0.0% | 16% | . | . | . | 3% | . | ?
Continued.
SMILES | Cruzain inh Det | Cruzain noTriton | SARS PLP yeast | Marburg entry inh | RE007 growth inh | 2A StopGo | NS1 inh | LASV entry inh
OC(COc1ccc(Br)cc1)CN1CCN(c2ccccc2)CC1 (centres undefined) | . | . | 10% | . | -17% | -10% | -4% | .
CC12C(=O)N(CCC(=O)O)C(=O)C1C1C=CC2C1 (centres undefined) | 8.1% | 1% | 6% | -1% | 0% | 14% | 2% | 0%
Cc1nnc(SCC(=O)NCc2ccc(Cl)cc2)[nH]c1=O | 3.7% | 0% | -1% | 5% | -6% | -17% | -4% | -11%
COc1ccc(N2CCN(C(=O)Cn3ncc4c3-c3cc(C)ccc3OC4)CC2)cc1 | 1.1% | 4% | . | ? | . | -15% | . | .
CC(C)(C)OC(=O)N1CCC[C@H]1c1nnc(SCc2c(Cl)cccc2Cl)o1 | -6.3% | 26% | -23% | -29% | 17% | 22% | -126% | -14%
CSCCC(NS(=O)(=O)c1ccc2c(c1)oc(=O)n2C)C(=O)N1CCN(c2cccc(Cl)c2)CC1 (centres undefined) | -0.9% | 2% | . | . | . | -19% | . | ?
O=C(NC1CCCC1)c1ccc(CS(=O)(=O)c2cccc(C(F)(F)F)c2)o1 | 5.4% | 14% | 6% | 7% | -7% | -7% | -11% | 6%
CCN(C(=O)c1ccc(S(=O)(=O)N2CCC(C)CC2)cc1)C1CCS(=O)(=O)C1 (centres undefined) | . | . | 3% | 20% | -5% | -8% | . | -6%
COc1cccc(Cn2cnc3c(N)c(C)c(C)cc32)c1 | . | . | 2% | 4%[46.1 µM] | 128% | -14% | . | 16%[46.1 µM]
COC(=O)C(C)Sc1ncnc2c1nnn2-c1ccc(F)cc1 (centres undefined) | -1.0% | 26% | -6% | -12% | ? | -4% | -5% | 10%
COc1ccccc1NS(=O)(=O)c1ccc(NC(=O)c2ccccn2)cc1 | . | . | 3% | -3% | -9% | 0% | . | -29%
